Six1-Eya2 inh: qHTS Assay for Inhibitors of the Six1/Eya2 Interaction. activity change, % (no concentration beside the values). Homeobox protein SIX1 (Homo sapiens) + Protein phosphatase EYA2 (Homo sapiens), …. AlphaScreen GST-Six1/His-Eya2 binding, biochemical; stronger effect = lower value; control for the full effect not named in the record. AID 651725, 2012. 360,000 compounds, 0.56% hits; in the data active = activity change below about -65%; inconclusive = about -30% to -65%; inactive = above about -30%; further: on the % scale 0 is the no-effect control and ±100 the full control effect
Target sequence (O00167 whole entry, looked up): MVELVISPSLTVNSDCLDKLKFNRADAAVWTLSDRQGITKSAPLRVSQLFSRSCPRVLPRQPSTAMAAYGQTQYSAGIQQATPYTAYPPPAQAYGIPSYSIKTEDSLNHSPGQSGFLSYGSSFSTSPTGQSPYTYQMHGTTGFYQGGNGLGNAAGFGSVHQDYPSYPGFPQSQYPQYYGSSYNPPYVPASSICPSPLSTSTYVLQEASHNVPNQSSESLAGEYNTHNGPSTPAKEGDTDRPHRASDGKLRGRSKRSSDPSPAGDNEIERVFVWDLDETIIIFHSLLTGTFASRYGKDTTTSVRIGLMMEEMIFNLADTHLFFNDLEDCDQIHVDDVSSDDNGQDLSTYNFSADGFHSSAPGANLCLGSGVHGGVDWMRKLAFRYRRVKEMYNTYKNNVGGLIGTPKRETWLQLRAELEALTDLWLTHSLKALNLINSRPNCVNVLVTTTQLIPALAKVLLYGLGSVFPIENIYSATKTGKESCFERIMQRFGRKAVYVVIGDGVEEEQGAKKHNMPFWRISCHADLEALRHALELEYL
Target sequence (Q15475 whole entry, looked up): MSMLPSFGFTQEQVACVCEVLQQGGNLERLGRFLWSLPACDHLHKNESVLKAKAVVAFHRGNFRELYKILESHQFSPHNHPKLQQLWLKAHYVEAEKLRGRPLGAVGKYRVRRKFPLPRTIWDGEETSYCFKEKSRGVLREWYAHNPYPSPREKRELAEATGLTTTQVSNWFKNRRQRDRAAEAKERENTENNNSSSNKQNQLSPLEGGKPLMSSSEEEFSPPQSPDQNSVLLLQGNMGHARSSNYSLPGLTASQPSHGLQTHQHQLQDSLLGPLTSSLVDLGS
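Six1/Eya2 binding was read as AlphaScreen signal after compounds were pinned into GST-Six1 plus His-tagged Eya2 (5X stock 250/500 nM) in pH 8.0 Tris/NaCl/TCEP buffer, beads added, then incubated 1 h, 37 C, dark.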
PINK1 expr mod: A Quantitative High throughput Screen to Identify Chemical Modulators of PINK1 Expression; PINK1 immunofluorescence, high-content cytometry, 24 h; Potency, µM (doses to about 76.6 µM), for the others: at the top dose activation (PINK1 increase), hits mostly activators; 410,000 compounds, 0.2% hits; active = well fitted activation curve with a large enough effect; inconclusive = small, poorly fitted or top-dose-only effect; inactive = flat fitted curve, though single readings scatter; cell line not stated here;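 further: potency means the concentration at half of the fitted maximal effect; % of control where 0% means no effect; nearly all actives have a fitted effect of over 65% in size; a mitochondrial uncoupler was the plate control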
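Compound titrations (5 concentrations, 24 h) on a stable cell line; DMSO and CCCP controls. Endpoint: fixed-cell PINK1 immunofluorescence with mitochondrial, cell and nuclear markers, scanned by microplate cytometer.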
D2 ag: Beta-Arrestin HTS for Positive Allosteric Modulators of the Human D2 Dopamine Receptor: Agonists; activation, % (test concentration not listed); 360,000 compounds, 0.084% hits; AID 624465, 2012; DiscoveRx PathHunter D2 beta-arrestin, luminescence, 90 min; 100% = 57 uM dopamine signal; in the data active = activation above about 40%; inconclusive = about 15% to 40%; inactive = below about 15%; further: compound concentration not given in the record; the text of the record calls up to 30% inactive
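DiscoveRx PathHunter D2 beta-arrestin cells (2,100/well) attached overnight, then compound-stimulated 90 min at 37 C in HBSS/10 mM HEPES/0.1% Tween-20 buffer; beta-galactosidase complementation read by luminescence after 1 h at ambient temperature. Dopamine 57 uM final (EC100) as control.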
D2 PAM: Beta-Arrestin HTS for Positive Allosteric Modulators of the Human D2 Dopamine Receptor: Potentiators; AID 624464, 2012; 360,000 compounds, 0.23% hits; potentiation, % (concentration not given with the values); DiscoveRx D2 beta-arrestin cells, luminescence, 90 min; 100% = 57 uM dopamine signal; active = potentiation of 50% or more; inconclusive = 30% to 50%; inactive = 30% or less;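 further: tested on top of an EC20 dose of dopamine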
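PathHunter beta-arrestin assay in DiscoveRx D2 cells. Compounds were added with an EC20 of dopamine (50 nM final) for 90 min at 37 deg C. Luminescence was read 1 h after detection reagent, with 57 uM dopamine as the EC100 control.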
TRPML1 blocker: qHTS for Inhibitors of the Human Mucolipin Transient Receptor Potential 1 (TRPML1); 390,000 compounds, 0.02% hits; TRPML1-inducible cells, Ca2+ dye fluorescence, FDSS; stronger effect = lower value; inhibition of EC80 agonist-evoked calcium signal; AID 624415, 2012; activity change, negative = inhibition, % (concentration not given with the values); Mucolipin-1 (Homo sapiens), Q9GZU1; in the data active means activity change below about -50%; inconclusive means about -30% to -50%; inactive means above about -30%;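 further: stimulus is agonist 54-4 at its EC80 concentration; on the % scale 0 is the no-effect control and ±100 the full control effect; the text of the record puts the active cut at -80%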
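Tet-induced TRPML1-DL cells loaded with Ca8 no-wash calcium dye were read kinetically on FDSS. Compound addition was followed by EC80 agonist 54-4 (4 uM final); inhibition was read over 110 s.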
TRPML1 agonist: qHTS for Agonists of the Human Mucolipin Transient Receptor Potential 1 (TRPML1); Mucolipin-1 (Homo sapiens), Q9GZU1; TRPML1-expressing cells, Ca2+ dye fluorescence, FDSS; host cell line not named in the record; reference of the full effect not given here; activation, % (test concentration not listed); 410,000 compounds, 0.12% hits; AID 624414, 2012; in the data active = activation above about 50%; inconclusive = about 30% to 50%; inactive = below about 30%; further: 0% is about no effect; the text of the record puts the active cut at 80%
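Agonist activity was taken from a 110 s kinetic Ca2+ dye read on the FDSS after pinning compounds onto TRPML1-DL cells. The cells were seeded at 1,500/well with Tet inducer, incubated about 16 h, then dye-loaded at room temperature.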
The depositor's hits bear a star; ? = inconclusive; . = no result given; & = joins results of further samples; [ ] = remark or other dose.

SMILES | TRPML1 blocker | D2 ag | D2 PAM | TRPML1 agonist | PINK1 expr mod | Six1-Eya2 inh
NC(=O)c1ccc[n+](Cc2ccc(-c3ccccc3)cc2)c1 | 11 | -3.4 | -9 | -1.2 | -1.9% | 3
O=C(Nc1cccnc1)C1OCCc2ccccc21 (configuration not stated) | 9 | -4.1 | -15 | -0.8 | -1.0% | -4
c1ccc(-c2noc(CSc3nnc(Cc4cccs4)n3-c3ccccc3)n2)cc1 | -1 | -3.0 | 3 | -0.4 | -1.9% | -3
C=CCSc1nc2c(sc3nc(C)cc(C)c32)c(=O)[nH]1 | 28 | -3.4 | -25 | 3.4 | 1.0% | -12
Cc1cc(C)cc(N2CCn3c2nc2c3c(=O)n(Cc3c(F)cccc3Cl)c(=O)n2C)c1 | 7 | . | . | 0.1 | 0.5% | .
Cc1ccc2nc(-c3ccc(NS(=O)(=O)c4ccc(F)cc4)cc3)sc2c1 | -5 | -2.7 | -1 | 3.0 | 7.1% | -7
CCOc1ccc(OCC(=O)NCCS(=O)(=O)N2CCN(c3ccccc3)CC2)cc1 | -19 | -0.1 | -8 | -0.7 | 1.9% | -2
COc1ccc(C2NCCc3cc(OC)c(OC)cc32)cc1OC (configuration not stated) | 1 | 1.4 | 11 | 0.9 | -0.9% | 0
COc1ccc(CCNC(=O)c2cnc3sc(N4CCCC4)nn3c2=O)cc1OC | 2 | . | . | 0.3 | 0.9% | .
COc1ccc(OC)c(S(=O)(=O)N2CCCC(C)C2)c1 (configuration not stated) | -16 | -4.0 | -5 | -0.1 | 4.2% | 1
CCOc1ccc(NC(=O)Cn2c3ncccc3c(=O)n2-c2ccc(CC)cc2)cc1 | 13 | . | . | -0.7 | 0.0% | .
COc1ccc(-n2c(/C=C/c3ccccc3F)nc3cc(OC)c(OC)cc3c2=O)cc1Cl | 22 | . | . | 0.4 | 5.5% | .
CCN(CC)CCn1c2c(c(SCC(=O)Nc3ccc(C(C)C)cc3)nc1=O)CCC2 | 23 | -0.8 | -6 | -0.9 | 2.3% | -10
COc1cc([N+](=O)[O-])cc(/C=N/NC(=O)C(C)Nc2cccc(C)c2)c1O (configuration not stated) | -11 | -3.6 | -25 | 1.9 | -1.6% | -21
Cc1ccc(-c2n[nH]c(=S)n2/N=C/C=C/c2ccccc2[N+](=O)[O-])cc1 | 3 | -7.4 | 3 | 5.7 | 0.4% | -28

Some entries already given with just D2 ag:
structure,D2 ag
C=CCSc1nc2c(sc3nc(C)cc(C)c32)c(=O)[nH]1,-3.4
Cc1ccc(-c2n[nH]c(=S)n2/N=C/C=C/c2ccccc2[N+](=O)[O-])cc1,-7.4

(next part)
SMILES | TRPML1 blocker | D2 ag | D2 PAM | TRPML1 agonist | PINK1 expr mod | Six1-Eya2 inh
O=Cc1cc(CCC(=O)O)ccc1O | 4 | -1.9 | 0 | 0.6 | -0.3% | 0
COc1ccc(-n2c(-c3cccc(F)c3)nc3c(cnn3-c3ccc(C)cc3)c2=O)cc1 | 1 | . | . | -0.5 | 1.7% | .
Cc1ccc(-n2ncc(C(=O)NC3CCCC3)c2C2CCN(C(=O)OC(C)(C)C)CC2)c(C)c1 | -8 | . | . | 6.7 | -1.2% | .
CCCNC(=O)N1CCN(C(=O)NCCC)CC1 | -2 | -2.2 | -4 | -0.1 | 0.6% | 7
COc1ccc(NC(=O)NC2(C(=O)N3CCCCC3)CCCCC2)cc1 | 2 | -1.8 | -4 | -0.1 | 3.6% | -2
COc1ccc(OC)c(NC(=O)CCc2nc(-c3ccc(C)cc3)no2)c1 | -3 | . | . | 0.1 | 1.9% | .
COC(=O)c1cc(S(=O)(=O)N2CCN(Cc3ccccc3)CC2)cn1C | -4 | 0.5 | -5 | 0.3 | -0.8% | -2
CN(CC(=O)Nc1ccccc1Cl)C(=O)C1CCN(C(=O)c2ccc(Cl)cc2)CC1 | -15 | -0.3 | -3 | -0.3 | -1.2% | -2
CC(C)OCCCNC(=O)CN1C(=O)/C(=C/c2ccccc2F)Oc2ccccc21 | -7 | -1.1 | 1 | -0.3 | 13% | 11
Cn1c(CCCCCN)nc2ccccc21 | 11 | -0.4 | -9 | 4.8 | -2.7% | 1
CCOCCCNC(=O)c1c(C)c(C(=O)OCC)n(C)c1C | 1 | -0.1 | -6 | -0.4 | 4.5%[38.3 µM] | -4
COc1cccc(NC2=NCCCCC2)c1 | 11 | -3.4 | -11 | -0.5 | -0.4% | -4
Cc1n[nH]c(C)c1S(=O)(=O)N1CCCC(C(=O)Nc2ccc(Br)cc2)C1 (configuration not stated) | -2&39 | 0.0 | -14 | 3.6&-0.7 | 4.1%&0.4% | -7
O=C(O)C1Cc2[nH]cnc2C(c2ccccc2O)N1 (configuration not stated) | -3 | -2.7 | -3 | 0.4 | -0.1% | ?
COc1ccc(CCNC(=O)CSc2cn(CCNC(=O)c3ccccc3F)c3ccccc23)cc1OC | -5 | . | . | 1.1 | -0.3% | .
Cc1ccc(CN(C(=O)c2ccco2)C(C(=O)NC2CCCC2)c2cccnc2)cc1 (configuration not stated) | 12 | -4.1 | -3 | -0.5 | 0.1% | 1
COc1ccc([C@H]2CC(=O)C=C(c3ccc(OC(F)(F)F)cc3)C2)cc1 | 2 | 0.0 | -7 | 0.0 | 5.3% | 0
CC(=O)Nc1ccc(C(=O)NNC(=O)c2ccc(Cl)cc2)cc1 | 13 | 1.4 | 0 | -0.2 | 1.3% | 1
COc1cccc(CN(C(=O)/C=C/c2ccc(Cl)cc2)C2CCS(=O)(=O)C2)c1 (configuration not stated) | -2 | -2.3 | 1 | -0.1 | 0.0% | -1
CCNC(=O)C1(C)CCN(Cc2ccc(C(F)(F)F)cc2)C1 (configuration not stated) | -7 | -1.5 | -10 | -0.4 | -0.3% | 5
O=C(CN1C(=O)c2ccccc2S1(=O)=O)Nc1ccc(S(=O)(=O)N2CCCCCC2)cc1 | 7 | -0.7 | -1 | 1.4 | -0.4% | -6
CN(CCC#N)C(=O)COC(=O)C1c2ccccc2Oc2ccccc21 | 0 | 4.0 | -4 | 0.9 | 1.3% | -2
O=C1C(=O)N(CCCn2ccnc2)C(c2cccc(Br)c2)/C1=C(\O)c1ccc2c(c1)OCCO2 (configuration not stated) | -5 | -2.5 | -11 | 0.3 | 0.2% | -6
CCN(C(=O)CSc1nnc(-c2ccc(Cl)cc2)n1C)C1CCS(=O)(=O)C1 (configuration not stated) | 9 | 0.5 | 7 | 2.9 | -0.9% | 4
CC1CCN(c2ccc([N+](=O)[O-])cc2C(N)=O)CC1 | 2 | -2.8 | -1 | 1.2 | -1.1% | 0
COc1ccc(OC)c(NC(=O)N2c3ccccc3Sc3ccccc32)c1 | -1 | . | . | -0.8 | 4.0% | .
CC(C)N(C(=O)[C@H]1CC(CC(=O)NCCCN(C)C)C(=O)N2CCc3c([nH]c4ccccc34)[C@]12C)C(C)C (some centres not stated) | 1 | 0.0 | . | -0.5 | -0.5% | 4
O=C1c2ccccc2C(c2nc3ccccc3[nH]2)N1c1ccccc1 (configuration not stated) | . | -1.9 | -6 | -0.5 | 8.8% | -1
O=C(CCC(=O)Nc1ccccc1)N/N=C/c1ccco1 | 1 | -2.3 | -8 | -0.2 | 0.0%[38.3 µM] | 1
CN(C)c1ccc(-c2ccnc3c2CC(C)(C(=O)Nc2cccc(N(C)C)c2)O3)cc1 (configuration not stated) | -5 | -3.7 | -9 | -0.4 | 1.7% | ?
CCOC(=O)c1[nH]c2cc3c(cc2c1CCCN1C(=O)c2ccccc2C1=O)OCCO3 | -5 | -0.7 | 1 | 1.3 | ? | 3
COC(=O)C1=C(C)NC(c2c(O)ccc3ccccc23)C(C(=O)OC)=C1C (configuration not stated) | -2 | -0.8 | -6 | 2.0 | ? | 5
NC(=O)c1ccc(SCC(=O)OCC(=O)NCc2ccco2)c([N+](=O)[O-])c1 | -3 | -0.7 | -6 | 0.4 | 2.0% | -5
O=C(N/N=C1\CC(c2ccccc2)Oc2ccccc21)c1cccnc1 (configuration not stated) | -11 | -1.6 | 2 | -1.2 | 10% | 2
C[C@@H]1CN([C@@H](C)CO)C(=O)c2cc(NS(C)(=O)=O)ccc2O[C@@H]1CN(C)Cc1ccc(C(F)(F)F)cc1 | 27 | -3.2 | -6 | 0.8 | -2.0% | 0
CCN(CC)CCNC(=O)c1nn(-c2ccc(OC)c(Cl)c2)c(=O)c2c1c1ccccc1n2C | 18 | . | . | -0.5 | 2.7% | .
c1ccc2c(c1)CC1(CCCC1)n1nnnc1-2 | -5 | -2.6 | -4 | 0.4 | 0.8%[38.3 µM] | -1
COc1ccc(Cn2ccnc2SCC(=O)Nc2ccccc2F)cc1 | 18 | -5.1 | -4 | 0.7 | -0.4% | -8
O=C(c1ccc(-c2ccccc2)cc1)N1CCN(c2ccccn2)CC1 | -4 | -1.2 | -4 | -0.3 | 0.3% | -8
COc1ccc2c(=O)c(-c3ccccc3C)c(C)oc2c1 | -9 | -0.5 | -1 | 0.7 | -0.8% | 7
CCCCn1nnnc1C(c1cc2ccccc2o1)N1CCCCC1 (configuration not stated) | . | . | . | 24 | 2.3% | 6
CSCCC(NS(=O)(=O)c1ccc(Cl)cc1)C(=O)OCc1cccc(Cl)c1 (configuration not stated) | 26 | -2.5 | -12 | 4.7 | 9.6% | -4
COC(=O)c1ccc(NC2CC(=O)N(c3ccccc3C)C2=O)cc1 (configuration not stated) | -7 | -3.6 | -38 | 0.0 | 0.4% | -1
Cn1c(=O)[nH]c(=O)c2c1nc1n2CCS1 | -11 | -4.0 | 11 | -0.6 | -0.5% | 11
O=C(Cc1ccccc1)Nc1nccs1 | 19 | 2.6 | -2 | -0.6 | 4.4% | 4
COc1cc2ccccc2cc1C(=O)N(CCN(C)C)c1nc2ccc(C)cc2s1 | -2 | -3.0 | -33 | 0.1 | 16% | ?

Profiles, looked up by structure.
Shown for `C[C@@H]1CN([C@@H](C)CO)C(=O)c2cc(NS(C)(=O)=O)ccc2O[C@@H]1CN(C)Cc1ccc(C(F)(F)F)cc1` : TRPML1 blocker: 27; D2 ag: -3.2; D2 PAM: -6; TRPML1 agonist: 0.8; PINK1 expr mod: -2.0%; Six1-Eya2 inh: 0
Shown for `COc1ccc2c(=O)c(-c3ccccc3C)c(C)oc2c1` : TRPML1 blocker: -9; D2 ag: -0.5; D2 PAM: -1; TRPML1 agonist: 0.7; PINK1 expr mod: -0.8%; Six1-Eya2 inh: 7

Screening data from PubChem BioAssay.

Outcome played no part in choosing rows; 1% or so of the library scored in one or more.
